HIV Env fusion = inhibitors of HIV-1 Env-driven cell-cell fusion, primary screen, HeLa-JRFL effector, CEM21 target cells, luciferase | actives 1.1% (n = 360,000) | inhibition, % at 12.3 µM;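 active = mean replicate inhibition score of at least 50 and every replicate individually at or above 50; inconclusive = only one of the two criteria met; inactive = mean below 50 and not all replicates reaching 50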;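 note: 0% = plate neutral controls and 100% = maraviroc near 300 nM; one replicate is shown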
eIF4H inh = human eIF4H binding inhibitors, primary screen, translation initiation inhibitor project, biochemical, uHTS, fluorescence polarization; actives 0.94% (n = 290,000); eIF4H fluorescence polarization binding assay; AID 2012, 2009; Eukaryotic translation initiation factor 4H (Homo sapiens), Q15056; inhibition, % at 35 µM;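 active = 50% or more with normal probe brightness, or confirmed in later tests; inconclusive = above 50% with abnormal brightness, or retests that disagree; inactive = below 50% or failed in later tests; about a fifth of its hits are not listed in these tables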;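 note: calls also rest on retests at 20 µM and on dose response follow-up; 0% = protein and probe with vehicle and 100% = probe without protein; strong numbers were not always called active; many hits fall short of the cut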
MT1-MMP act inh = blockers of MT1-MMP proenzyme processing, primary screen, HT1080 RFP-PRO-GFP cells, GFP/RFP fluorescence; GFP/RFP ratio fluorescence, overnight; percent of plate control window, DMSO zero; actives 0.061% (n = 360,000); GFP/RFP ratio change, % at 20 µM; AID 651647, 2012; Matrix metalloproteinase-14 (Homo sapiens), P50281;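 active = GFP/RFP ratio change of at least 30% with cell ATP level not reduced by more than half and red fluorescence within 50% of control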; note: strong numbers were not always called active
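Assay system – RFP-PRO-GFP reporter HT1080 cells · Compound dosing – single dose of 20 µM compound, 1% DMSO final · Incubation – overnight compound exposure at 37 °C · Measure – GFP/RFP fluorescence ratio · Benchmarks – DMSO wells and RFP-L50D-GFP cells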
Yeast UUG start = modulators of yeast start codon fidelity, primary screen, whole organism, S. cerevisiae, single point, plate reader; actives 0.13% (n = 350,000); S. cerevisiae UUG-firefly luciferase reporter, luminescence/redox ratio; activity score, % at 18.7 µM;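 active = replicate mean at a twofold rise or more, about +100% in these data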;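 note: firefly luciferase made from a UUG start codon reports start codon fidelity; reporter light over untreated wells divided by growth signal over untreated wells; some hits fall short of that in this replicate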
PABP FP inh = PABP poly(A) RNA binding inhibitors, primary screen, biochemical, fluorescence polarization, uHTS | inhibition, % at 35 µM | AID 2014, 2009 | actives 1% (n = 290,000) | Polyadenylate-binding protein 1 (Homo sapiens), P11940;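 active = 50% or more with normal probe brightness, or confirmed in later tests; inconclusive = above 50% with abnormal brightness, or retests that disagree; inactive = below 50% or failed in later tests; about a fifth of its hits are not listed in these tables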;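 note: calls also rest on retests at 20 µM and on dose response follow-up; controls were probe without protein and protein plus probe with vehicle; some compounds called inactive have numbers as strong as hits; many hits fall short of the cut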
Target sequence (P11940 whole entry, looked up): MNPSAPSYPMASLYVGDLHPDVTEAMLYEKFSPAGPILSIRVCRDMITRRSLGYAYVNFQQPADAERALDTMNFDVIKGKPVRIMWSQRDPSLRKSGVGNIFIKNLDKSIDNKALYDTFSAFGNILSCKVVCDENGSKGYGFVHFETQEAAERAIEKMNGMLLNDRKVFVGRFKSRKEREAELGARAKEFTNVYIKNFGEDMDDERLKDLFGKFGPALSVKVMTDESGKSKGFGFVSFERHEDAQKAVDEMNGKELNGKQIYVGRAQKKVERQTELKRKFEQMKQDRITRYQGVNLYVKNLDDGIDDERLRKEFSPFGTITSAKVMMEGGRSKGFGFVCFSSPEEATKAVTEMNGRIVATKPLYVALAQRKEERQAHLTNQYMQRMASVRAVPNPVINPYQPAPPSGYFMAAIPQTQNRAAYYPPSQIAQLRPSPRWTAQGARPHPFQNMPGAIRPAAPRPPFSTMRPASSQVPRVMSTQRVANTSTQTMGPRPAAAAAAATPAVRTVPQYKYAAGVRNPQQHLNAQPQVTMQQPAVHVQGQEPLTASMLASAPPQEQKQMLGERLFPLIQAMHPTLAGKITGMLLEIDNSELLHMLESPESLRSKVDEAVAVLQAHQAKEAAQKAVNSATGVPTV
Rce1 inh = yeast Rce1p protease inhibitors, primary screen, biochemical, fluorescence, cell-free homogeneous. yeast membranes, quenched prenylated peptide cleavage fluorescence. AID 2563, 2010. CAAX prenyl protease 2 (Saccharomyces cerevisiae (strain ATCC 204508 / S288c)), Q03530. calls only. actives 0.27% (n = 290,000);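 active = fall in fluorescence gain of 50% or more versus controls, with final raw signal at or below 3038400; inconclusive = same 50% fall but final raw signal above 3038400; inactive = fall in fluorescence gain under 50%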;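 note: plate controls were neutral control wells for no effect and wells lacking membranes for full effect; tested at 10 µM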
Target sequence (Q03530 whole entry, looked up): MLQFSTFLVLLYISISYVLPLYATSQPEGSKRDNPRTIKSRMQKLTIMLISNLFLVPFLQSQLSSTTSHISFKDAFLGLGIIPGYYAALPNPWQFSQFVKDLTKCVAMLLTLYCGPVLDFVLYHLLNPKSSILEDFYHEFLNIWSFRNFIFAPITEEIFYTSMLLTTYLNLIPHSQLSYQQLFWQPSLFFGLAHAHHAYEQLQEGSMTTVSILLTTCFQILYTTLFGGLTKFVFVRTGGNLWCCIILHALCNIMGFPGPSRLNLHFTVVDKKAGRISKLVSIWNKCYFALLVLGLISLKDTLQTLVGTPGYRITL
CSC inhib = cancer stem cell viability inhibitors, primary screen, luminescence; cancer stem cell-like cells viability; actives 1.1% (n = 300,000); inhibition, % at 7.5 µM; AID 2717, 2010;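 active = mean at 75% or more and at least half the replicates too; inconclusive = mean and replicates disagree; tested in HMLE shEcad cells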;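 note: 0% = median of negative and 100% = median of positive control wells; the first replicate is given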
MT1-MMP act inh RFP = further read-out of MT1-MMP act inh, marked with its call; RFP signal change, %; measured here: RFP expression control read;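 0 = vehicle wells; hits needed this value within 50% of zero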
* hit, by the source's call. A portion of the library (hit frequency here may not be typical).

What do the screens show for `CN(C)S(=O)(=O)c1cccc(C(=O)NC2CCSc3ccccc32)c1` (configuration not stated)?
HIV Env fusion: -5; eIF4H inh: -7; MT1-MMP act inh: -3; Yeast UUG start: 11; PABP FP inh: 7; Rce1 inh: inactive; CSC inhib: -3; MT1-MMP act inh RFP: -2

Results for C/C(=N\NC(=O)Cc1ccc(F)cc1)c1ccc(F)cc1 ?
eIF4H inh: 2; MT1-MMP act inh: -1; PABP FP inh: 4; Rce1 inh: inactive; CSC inhib: -2; MT1-MMP act inh RFP: 0

Results for COCCn1c(=S)[nH]c2cc(C(=O)NC3CCCC(C)C3C)ccc2c1=O (configuration not stated) ?
HIV Env fusion: 0; MT1-MMP act inh: 1; Yeast UUG start: -11; MT1-MMP act inh RFP: -3

What do the screens show for `Nc1nc(N2CCN(c3ccc(Cl)cc3)CC2)n[nH]1`?
HIV Env fusion: 8; eIF4H inh: -3; MT1-MMP act inh: -2; PABP FP inh: 7; Rce1 inh: inactive; CSC inhib: -13; MT1-MMP act inh RFP: 2

How did O=S1(=O)CCC(NC(=S)N2CCOCC2)C1 (configuration not stated) do in these assays?
HIV Env fusion: -10; eIF4H inh: -1; MT1-MMP act inh: -8; Yeast UUG start: -3; PABP FP inh: -6; Rce1 inh: inactive; CSC inhib: -6; MT1-MMP act inh RFP: -2

What do the screens show for `O=C(CN1CCN(S(=O)(=O)c2cccc(Br)c2)CC1)N1CCCCC1`?
HIV Env fusion: 2; MT1-MMP act inh: -2; Yeast UUG start: -21; MT1-MMP act inh RFP: -3

Results for CCOC(=O)c1cc2c(c(CCO)n1)[C@H](CCO)N(S(=O)C(C)(C)C)C2 (some centres not stated) ?
HIV Env fusion: 6; MT1-MMP act inh: 4; Yeast UUG start: -13; MT1-MMP act inh RFP: 7

What do the screens show for `O=C(CN1C(=O)/C(=C\c2cccc(Cl)c2)Sc2ccccc21)NCCCN1CCOCC1`?
HIV Env fusion: -8; eIF4H inh: -5; MT1-MMP act inh: 0; Yeast UUG start: 10; PABP FP inh: 3; Rce1 inh: inactive; CSC inhib: 10; MT1-MMP act inh RFP: -1

How did O=C(Cc1ccc(Cl)c(Cl)c1)Nc1ccccc1N1CCCC1 do in these assays?
HIV Env fusion: 24; eIF4H inh: -1; MT1-MMP act inh: -4; Yeast UUG start: -17; PABP FP inh: 2; Rce1 inh: inactive; CSC inhib: 12; MT1-MMP act inh RFP: -2

What do the screens show for `CCn1c(=O)c(C(=O)NCCCc2ccccc2)c(O)c2ccccc21`?
HIV Env fusion: 16; eIF4H inh: 3; MT1-MMP act inh: 4; Yeast UUG start: 3; PABP FP inh: -1; Rce1 inh: inactive; CSC inhib: 8; MT1-MMP act inh RFP: 4

How did CSc1nsc(N/N=C/c2ccc3c(c2)OCO3)c1C#N do in these assays?
HIV Env fusion: -123; eIF4H inh: -6; MT1-MMP act inh: 2; PABP FP inh: 6; Rce1 inh: inactive; CSC inhib: 4; MT1-MMP act inh RFP: -2

What do the screens show for `Cc1cccc(-c2cc(NC=O)c3ncc(-c4cccc(C(=O)N(C)C)c4)n3c2)c1`?
HIV Env fusion: -20; MT1-MMP act inh: -9; Yeast UUG start: -7; MT1-MMP act inh RFP: -10

How did CCOC(=O)Cc1csc(NC(=S)NC(=O)c2cc(OC)cc(OC)c2)n1 do in these assays?
HIV Env fusion: 2; eIF4H inh: 1; MT1-MMP act inh: -2; PABP FP inh: -2; Rce1 inh: inactive; CSC inhib: 7; MT1-MMP act inh RFP: 1

What do the screens show for `NC(=O)c1ccccc1NC(=O)CN1CCOCC1`?
HIV Env fusion: -32; eIF4H inh: 5; MT1-MMP act inh: 3; Yeast UUG start: 1; PABP FP inh: 28; Rce1 inh: inactive; MT1-MMP act inh RFP: 5

How did N=C(N)SCc1cn2ccccc2n1 do in these assays?
HIV Env fusion: 7; eIF4H inh: 9; MT1-MMP act inh: 4; PABP FP inh: -2; Rce1 inh: inactive; CSC inhib: -21; MT1-MMP act inh RFP: 6

How did O=C(c1c(Cl)cccc1Cl)N1CCN(c2cccc3[nH]ccc23)CC1 do in these assays?
HIV Env fusion: 10; eIF4H inh: 1; MT1-MMP act inh: 1; PABP FP inh: 17; Rce1 inh: inactive; CSC inhib: 16; MT1-MMP act inh RFP: 2

What do the screens show for `CCCCN(C)C1CCN(C(=S)Nc2cccc(OC)c2)CC1`?
HIV Env fusion: -23; eIF4H inh: 4; MT1-MMP act inh: 1; Yeast UUG start: -19; PABP FP inh: 2; Rce1 inh: inactive; CSC inhib: -1; MT1-MMP act inh RFP: 1

Results for NC(=O)C1CCN(CC(=O)Nc2ccc3c(c2)OCO3)CC1 ?
HIV Env fusion: -4; MT1-MMP act inh: -4; Yeast UUG start: -12; MT1-MMP act inh RFP: 1

What do the screens show for `CN(CC(=O)Nc1ccc([N+](=O)[O-])cc1Br)Cc1c(F)cccc1Cl`?
HIV Env fusion: 17; eIF4H inh: -6; MT1-MMP act inh: -3; PABP FP inh: -1; Rce1 inh: inactive; CSC inhib: 43; MT1-MMP act inh RFP: -10

Results for CCOC(=O)CC(C(=O)OCC)P(=O)(c1ccccc1)c1ccccc1 (configuration not stated) ?
eIF4H inh: -10; MT1-MMP act inh: 0; Yeast UUG start: 2; PABP FP inh: 4; Rce1 inh: inactive; CSC inhib: 14; MT1-MMP act inh RFP: 1

Results for Cc1ccsc1C(=O)OCC(=O)Nc1c(C)n(C)n(-c2ccccc2)c1=O ?
HIV Env fusion: 2; eIF4H inh: -10; MT1-MMP act inh: -4; PABP FP inh: inconclusive; Rce1 inh: inactive; CSC inhib: -9; MT1-MMP act inh RFP: 2

What do the screens show for `CC(C)C[C@@H](CNCC(=O)[C@H](Cc1ccccc1)NC(=O)c1[nH]cnc1C(=O)N[C@@H](C)CN)NC(=O)c1nc[nH]c1C(=O)N[C@@H](CC(=O)O)C(=O)O`?
HIV Env fusion: 13; MT1-MMP act inh: 0; Yeast UUG start: 0; MT1-MMP act inh RFP: 5

What do the screens show for `COc1ccc2cc(C(=O)OC(C)C)sc(=O)c2c1OC`?
eIF4H inh: 1; MT1-MMP act inh: 1; Yeast UUG start: 3; PABP FP inh: 2; Rce1 inh: inactive; MT1-MMP act inh RFP: 1

How did COc1ccc(C2(C(=O)N3CCCC3)CCOCC2)cc1OC do in these assays?
eIF4H inh: -4; MT1-MMP act inh: 5; Yeast UUG start: -5; PABP FP inh: -3; Rce1 inh: inactive; CSC inhib: -2; MT1-MMP act inh RFP: 5

What do the screens show for `O=C(N/C(=C\c1ccc([N+](=O)[O-])cc1)C(=O)N1CCCCC1)c1ccccc1Br`?
eIF4H inh: -7; MT1-MMP act inh: 1; PABP FP inh: 2; Rce1 inh: inactive; CSC inhib: 2; MT1-MMP act inh RFP: 1

What do the screens show for `COc1ccc(Cl)cc1-c1nc(SCC(N)=O)n[nH]1`?
HIV Env fusion: -12; eIF4H inh: -5; MT1-MMP act inh: 3; Yeast UUG start: -14; PABP FP inh: 8; Rce1 inh: inactive; CSC inhib: -11; MT1-MMP act inh RFP: 3

How did C=C1CCN([C@@H](Cc2ccccc2)C(=O)NCCC(C)C)S(=O)(=O)c2ccccc21 do in these assays?
HIV Env fusion: 84*; MT1-MMP act inh: -11; Yeast UUG start: -10; Rce1 inh: inactive; CSC inhib: -6; MT1-MMP act inh RFP: -14

Results for CC(C)Cn1cc(-c2cncc3nccn23)cn1 ?
HIV Env fusion: 8; MT1-MMP act inh: 5; Yeast UUG start: -14; MT1-MMP act inh RFP: 4

How did COc1cccc(/C=N/NC(=O)C(=O)Nc2ccccc2OC(F)(F)C(F)F)c1O do in these assays?
HIV Env fusion: -9; eIF4H inh: 2; MT1-MMP act inh: -15; PABP FP inh: 3; Rce1 inh: inactive; CSC inhib: 108*; MT1-MMP act inh RFP: -15

How did O=C(NC(Cc1ccccc1)c1nc2ccccc2[nH]1)c1cccc([N+](=O)[O-])c1 (configuration not stated) do in these assays?
HIV Env fusion: 7; eIF4H inh: -2; MT1-MMP act inh: -3; PABP FP inh: 5; Rce1 inh: inactive; CSC inhib: 16; MT1-MMP act inh RFP: -5

How did Cc1ccc(N=Nc2c(=O)[nH]n3c(C)cc(C)nc23)cc1 do in these assays?
eIF4H inh: 20; MT1-MMP act inh: 14; PABP FP inh: 15; Rce1 inh: inactive; CSC inhib: 13; MT1-MMP act inh RFP: 5

How did CC1CCN(C(C)C(=O)Nc2ccccc2-c2ccccc2)CC1 (configuration not stated) do in these assays?
HIV Env fusion: 43; eIF4H inh: 0; MT1-MMP act inh: -5; Yeast UUG start: 8; PABP FP inh: 8; Rce1 inh: inactive; CSC inhib: -10; MT1-MMP act inh RFP: -4

What do the screens show for `CC(C)c1nc(SCC(=O)Nc2nccs2)c2ccccc2n1`?
HIV Env fusion: -7; eIF4H inh: 0; MT1-MMP act inh: -3; Yeast UUG start: 14; PABP FP inh: 3; CSC inhib: 1; MT1-MMP act inh RFP: -8

How did O=C1C(=O)N(CCCn2ccnc2)C(c2ccc(Br)cc2)/C1=C(\O)c1ccc2c(c1)OCCO2 (configuration not stated) do in these assays?
HIV Env fusion: -25; eIF4H inh: 19; MT1-MMP act inh: -2; Yeast UUG start: -14; PABP FP inh: 17; Rce1 inh: inactive; CSC inhib: -1; MT1-MMP act inh RFP: 2

Results for Cc1ccc(S(=O)(=O)N2C[C@H]3N(C(=O)OC(C)C)N(C(=O)OC(C)C)C[C@H](OC(=O)NC4CC4)[C@@]3(O)C2)cc1 ?
HIV Env fusion: -31; MT1-MMP act inh: -1; Yeast UUG start: 2; MT1-MMP act inh RFP: 4

How did CCc1nc2ccc(C(=O)N3CCN(c4ccccc4)CC3)cn2c1N(CCC(C)C)CCN(C)C do in these assays?
HIV Env fusion: -159; MT1-MMP act inh: -3; Yeast UUG start: -12; MT1-MMP act inh RFP: 1

What do the screens show for `Cc1ccc(SCCNC(=O)/C=C/c2ccc(Cl)cc2)cc1`?
HIV Env fusion: -73; eIF4H inh: -4; MT1-MMP act inh: -3; PABP FP inh: 10; Rce1 inh: inactive; CSC inhib: 6; MT1-MMP act inh RFP: -2

How did COC(=O)c1sc(NC(=O)C2c3ccccc3Oc3ccccc32)c(C(=O)OC)c1C do in these assays?
HIV Env fusion: 11; eIF4H inh: -6; MT1-MMP act inh: -3; PABP FP inh: 0; Rce1 inh: inactive; CSC inhib: 16; MT1-MMP act inh RFP: -9

What do the screens show for `Cc1[nH]c2ccccc2c1C(=O)C(=O)N1CC=C(c2ccccc2)CC1`?
HIV Env fusion: 1; eIF4H inh: -3; MT1-MMP act inh: -103; PABP FP inh: -12; Rce1 inh: inactive; CSC inhib: 14; MT1-MMP act inh RFP: -2

What do the screens show for `COc1ccc(N2CC(O)=C(c3nc(-c4ccc(F)cc4)cs3)C2=N)cc1Cl`?
HIV Env fusion: 11; eIF4H inh: -6; MT1-MMP act inh: -2; Yeast UUG start: -15; PABP FP inh: 36; Rce1 inh: inactive; CSC inhib: -5; MT1-MMP act inh RFP: -5

Results for CC(C)c1ccc(NC(=O)C[n+]2ccn(C3=C([O-])c4ccccc4C3=O)c2)cc1 ?
HIV Env fusion: 0; eIF4H inh: 13; MT1-MMP act inh: -1; PABP FP inh: 9; Rce1 inh: inactive; CSC inhib: -5; MT1-MMP act inh RFP: -10

How did O=S(=O)(/C=C/c1ccccc1)NC1CCCCCC1 do in these assays?
HIV Env fusion: 1; eIF4H inh: 2; MT1-MMP act inh: 1; PABP FP inh: -8; Rce1 inh: inactive; MT1-MMP act inh RFP: -1

Screens deposited in PubChem by several laboratories.
